# Screening data (PubChem)
# HPGD block: inhibitors of human 15-hydroxyprostaglandin dehydrogenase (HPGD). purified HPGD, NADH fluorescence kinetic, PGE2 substrate. Potency, µM, for inactives: at the highest dose activity change, negative = inhibition, hits mostly inhibitors. 150,000 compounds, 4.3% hits. AID 894; active = well fitted inhibition curve with a large enough effect (not every such curve was filed as active); inconclusive = small, poorly fitted or top-dose-only effect, or another doubt; inactive = no such curve, though single readings can be large or run the other way;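 also: top concentration of the series not given in the record; plate controls included wells without enzyme; inactives centre near -10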
# Target sequence (P15428 whole entry, looked up): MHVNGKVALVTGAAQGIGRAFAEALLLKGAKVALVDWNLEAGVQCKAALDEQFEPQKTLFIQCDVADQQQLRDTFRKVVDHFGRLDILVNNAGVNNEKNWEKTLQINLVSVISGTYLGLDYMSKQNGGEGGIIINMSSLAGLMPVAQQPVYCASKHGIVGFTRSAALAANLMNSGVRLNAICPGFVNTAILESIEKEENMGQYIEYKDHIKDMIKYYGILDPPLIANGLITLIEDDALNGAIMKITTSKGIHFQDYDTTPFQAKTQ
#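 NADH formation kinetics: reaction with 30 uM PGE2 and 1 mM NAD+ (final), 20 nM enzyme, Tris-HCl pH 8 with Tween 20, after 15 min compound preincubation at room temperature. Fluorescence change, last versus first of five reads.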
# An asterisk follows results filed as active; u = inconclusive; & = joins results of further samples. % is scaled to controls: 0 for no effect and ±100 for the full control effect; potency is read from the fitted curve at half-maximal effect. Some of the compounds tested; rates above refer to the full screens.
SMILES,HPGD block
Cc1ccc(S(=O)(=O)/N=C2/C=C(Sc3ncn[nH]3)C(=O)c3ccccc32)c(C)c1,1.4µM*
COc1ccc(-c2cc(=O)c3c(O)c(OC)c(OC)c(OC)c3o2)cc1,-11%
COc1cccc(C(=O)NN/C(C)=C/C(=O)C(F)(F)C(F)(F)C(F)(F)F)c1,-19%
COC(=O)c1cccc(C23CC4(C2)[C@H](CN(Cc2ccc(-c5ccccc5)cc2)[C@@H]4c2ccccc2)C3c2ccc(C(F)(F)F)cc2)c1 (stereo partly drawn),-8%
CC1CCN(CC(=O)NCc2ccccc2)CC1,-24%
COC(=O)/C(=N/Nc1ccccc1C)N1CCCc2ccccc21,-7%
CCCN(CCC)C(=S)Nc1cc(C(=O)OC)ccc1C(=O)OC,-9%
O=C(C1CC1)N1CCC(c2nc(-c3ccc(S(=O)(=O)NCC4CCCO4)cc3)no2)CC1 (stereo not drawn),-13%
COc1ccc(S(=O)(=O)N2CCC(N3CCCCC3)CC2)cc1,2%
CSCCC(=O)Nc1ccc(C(C)=O)cc1,-14%
Cc1ccc(C)c(NC(=O)CCCCCCCCCCC2COCCO2)c1 (stereo not drawn),-10%
CCOC(=O)CN/C=C(\C#N)c1ccccc1,-10%

# Six compounds picked at random from the list so far:
SMILES,HPGD block
COc1cccc(C(=O)NN/C(C)=C/C(=O)C(F)(F)C(F)(F)C(F)(F)F)c1,-19%
Cc1ccc(S(=O)(=O)/N=C2/C=C(Sc3ncn[nH]3)C(=O)c3ccccc32)c(C)c1,1.4µM*
COC(=O)/C(=N/Nc1ccccc1C)N1CCCc2ccccc21,-7%
O=C(C1CC1)N1CCC(c2nc(-c3ccc(S(=O)(=O)NCC4CCCO4)cc3)no2)CC1 (stereo not drawn),-13%
CCCN(CCC)C(=S)Nc1cc(C(=O)OC)ccc1C(=O)OC,-9%
COC(=O)c1cccc(C23CC4(C2)[C@H](CN(Cc2ccc(-c5ccccc5)cc2)[C@@H]4c2ccccc2)C3c2ccc(C(F)(F)F)cc2)c1 (stereo partly drawn),-8%

# (more compounds)
SMILES,HPGD block
Cc1cc(C)n2cc(CSc3nnc(N)s3)nc2n1,-14%
Cc1ccccc1NC(=O)C(C#N)Cc1cccnc1 (stereo not drawn),0%
O=C(Nc1ccc(Cl)cc1C(=O)Nc1ccc(Br)cn1)c1ccco1,u
Cc1nc(NC(=O)CCc2ccccc2)ccc1Br,-14%
O=C(CN1CCN(Cc2ccccc2)CC1)c1ccccc1,-5%
O=[N+]([O-])c1cc(-c2ncccn2)c([N+](=O)[O-])s1,28µM*
COC(=O)Cn1c(C(=O)N2CCCC2)cc2c1C[C@H]1CN(C(=O)c3ccccc3)[C@@](Cc3ccc(F)cc3)(C(=O)OC)[C@@H]21,0%&-3%
COc1cccc(-c2nc(OC(C)C)c3ccccc3n2)c1,-9%
c1ccc2c(c1)ncn2-c1ccc(-c2ccnc(-c3ccncc3)n2)cc1,-29%
CCOc1ccc2nc(NC(=O)C(NS(=O)(=O)c3cccs3)C(C)C)sc2c1 (stereo not drawn),-5%
Cc1nc2ccc(S(=O)(=O)c3ccc4nc(C)[nH]c4c3)cc2[nH]1,-15%
COc1ccc(NC(=O)[C@@H](NC(=O)c2ccccc2)C(C)C)cc1S(=O)(=O)N1CCCCC1,-18%
O=S(=O)(NCCOCCNS(=O)(=O)c1ccccc1)c1ccccc1,-2%
C=C(C)c1cccc(C(C)(C)NC(=O)N2CCN(C)CC2)c1,9%
Cc1cc(C)cc(NC(=O)CN(C)S(=O)(=O)c2cnc[nH]2)c1,-12%
O=C(CSc1ccc2ccccc2c1)NC1CCCc2ccccc21 (stereo not drawn),-26%
Cn1c(=O)c2c(SCc3cccnc3)nc(CC(C)(C)C)nc2n(C)c1=O,-18%
CC(=O)CCc1c(C)c2cccc(C)c2[nH]c1=O,u
O=C(NCc1ccco1)c1ccc(Br)c(S(=O)(=O)N2CCCCC2)c1,-7%
CC(=O)CSc1ncnc2c1oc1ccccc12,-24%
CCCc1nnc(NC(=O)Cn2c(=O)oc3cc(Br)ccc32)s1,u
CCC1(C)OC(=O)NN(c2ccc(C)cc2)C1(C)O (stereo not drawn),2%
CCOC(=O)C(NC(=O)Nc1ccc(Cl)cn1)(Oc1ccccc1)C(F)(F)F (stereo not drawn),-12%
O=S(=O)(c1cccs1)N1CN(Cc2cccs2)c2nc3ccccc3nc21,-17%
CC(=O)NC1(C(Cl)(Cl)Cl)Oc2ccccc2O1,-10%
CCN(CC)c1nc2nonc2nc1N(CC)CC,-10%
CCOC(=O)C1CCN(C(=O)C2CCN(S(=O)(=O)N3CCCC3)CC2)CC1,-4%
C=C(C)c1cccc(C(C)(C)NC(=O)N2CCN(c3ccc(OC)cc3)CC2)c1,-10%
COn1c(C)c(C(C)=O)c2c3nonc3ccc21,-25%
O=C1C2C3c4ccccc4C(c4ccccc43)C2C(=O)N1c1cccnc1 (stereo not drawn),-10%
CC1CCN(C(=O)CCCC(=O)O)CC1,-12%
Cn1nc(-c2ccccc2)c(C#N)c1Sc1cccc(Cl)c1,-30%
Cc1ccc2c(N)c(C#N)sc2n1,-25%
O=C(Nc1ccc(N2CCOCC2)cc1)C1CCCN(S(=O)(=O)c2ccccc2)C1 (stereo not drawn),3%
O=C(O)/C=C/C(=O)Nc1ccccc1C(=O)Nc1ccccc1,-14%
CC(OC(=O)c1ccco1)C(=O)NC1CCCCC1 (stereo not drawn),14µM*
CN(C)CCSS(=O)(=O)O,-6%
COc1nc(N=C(N)N)nc2c(C)cccc12,u
Cc1cc(=O)oc2ccc(OC(C)C(=O)O)cc12 (stereo not drawn),u
CC(=O)N(C)c1ccc(NC(=O)c2cnn(C)c2)cc1,-7%
Cc1c(C(=O)N(C)C)sc(NC(=O)c2cccc([N+](=O)[O-])c2)c1C#N,u
CSCCC(NC(=O)c1cc(C(C)(C)C)oc1C)C(=O)O (stereo not drawn),-5%
COc1ccc(OC)c(NC(=O)c2cc3n(n2)C(C(F)(F)F)CC(c2ccc4c(c2)OCO4)N3)c1 (stereo not drawn),-12%
CN(Cc1ccccc1)Cc1nc2c(c(=O)n(C)c(=O)n2C)n1Cc1ccc(Cl)cc1,-6%
CCOC(=O)c1c(C)nc2sc3c(=O)n(-c4ccc(C(C)=O)cc4)nnc3c2c1-c1ccc(OC)cc1,u
O=C(O)c1ccc(CS(=O)(=O)Cc2ccccc2F)o1,-1%
CC1(C(=O)O)CCC(C(=O)NCCc2ccccc2)C1(C)C (stereo not drawn),-10%
Cc1nn(Cc2ccc(F)cc2)c(C)c1NC(=O)c1cc(-c2ccco2)on1,-7%
C=CCNc1nc(Nc2ccc(-c3nc4ccccc4o3)cc2)nc(N2CCOCC2)n1,u
CCOc1ccc(OCC)c(NC(=O)c2ccc(CNc3c(N4CCOCC4)c(=O)c3=O)cc2)c1,-26%
Cc1nnc(SCC(=O)NNC(=O)CC#N)[nH]c1=O,-2%
O=C1c2cccc3c(N4CCCCC4)ccc(c23)C(=O)N1CCO,-5%
COc1ccccc1OCCOc1ccc(/C=C2/C(=N)N3OC(C)=CC3=NC2=O)cc1OC,-21%
Clc1ccc(OCc2nnc(SCCN3CCCCC3)n2Cc2ccco2)cc1,-8%
O=S(=O)(NCCc1ccccc1)c1ccc(Cl)nc1,2%
CCCCC[C@H](O)/C=C/C=C/C=C/[C@H](O)C/C=C\CCCC(=O)O,-1%
CC1(C)S/C(=N/N=C/c2cccs2)NC1=O,-6%
NC(=O)NO,-4%&-9%
CN(c1ccc(C(=O)N2CCOCC2)cc1)S(C)(=O)=O,-9%
O=C(COC(=O)c1ccccc1NC(=O)c1ccco1)Nc1ncc(Cl)cc1Cl,-26%
# Additional results:
SMILES,HPGD block
O=C(Nc1cccc(Cl)c1Cl)c1ccc(-c2ccccc2)cc1,u
CCn1c(CNC(=O)c2ccc(OC)cc2)nnc1SCC(=O)c1ccccc1,-16%
CCOC(=O)c1cc2sccc2n1CC(=O)N1CCCc2ccccc21,-22%
Cc1nc2c(-c3ccccc3)c(C)nn2c(C)c1CCC(=O)NCc1ccco1,-12%
CCn1c2ccccc2c2nnc(SCC(=O)NCc3cccs3)nc21,-15%
CC(=O)Nc1ccc(NC(=O)c2ccccc2C)cc1,-16%
CC(C)(C)C1CCC(C(=O)OCC(=O)N2CCOCC2)CC1 (stereo not drawn),-4%
COC(=O)c1ccc(NN=Nc2ccc(C)cc2)cc1,u
Cc1cc(C(=O)COC(=O)c2ccc3c(c2)NC(=O)CS3)c(C)n1CC1CCCO1 (stereo not drawn),-12%
Cn1nnnc1SCC(=O)N1CCN(C(c2ccccc2)c2ccccc2)CC1,-9%
Cc1ccc(N(C(=O)NC2CCCCC2)C2=NCCCCC2)cc1,-17%
CCSc1nnc(NC(=O)c2csc3c2CCC(C)C3)s1 (stereo not drawn),-7%
COC(=O)c1ccc(CNC(=O)c2c3c(nc4ccccc24)CCN(Cc2ccccc2)C3)cc1,-8%
CCCc1nc2ccccc2c(C(=O)OCC(=O)Nc2ccc(S(=O)(=O)N3CCOCC3)cc2)c1CC,-16%
CCc1nc2sc3c(=O)n(N)cnc3c2c2c1COC(C)(C)C2,-10%
O/N=C(\c1ccc(Cl)cc1)c1cc2ccccc2o1,25µM*
COc1cc(O)c(NC(C)=O)c2nonc12,-4%
COc1ccc(N2C(=O)CN=C2Nc2nc(C)cc(C)n2)cc1OC,-20%
COc1ccc(-n2c(C)cc(C(=O)CSc3nnc(-c4cccs4)o3)c2C)cc1,-14%
COc1ccccc1-c1cn(S(=O)(=O)c2ccc(F)cc2)nc1N,-11%
C=CCNc1sc(C(=O)C(C)(C)C)c(N)c1C#N,-23%
O=C(COC(=O)CCCN1C(=O)c2cccc3cccc(c23)C1=O)Nc1ccc(Cl)cc1,u
CCOCCCNS(=O)(=O)c1ccc2c(c1)CCN2C(=O)CC,-1%
O=C(NCCN1CCCC1)C1COc2ccccc2O1 (stereo not drawn),-9%
Cc1ccc(N2C(=O)/C(=C\c3ccco3)SC2=S)cc1,u
CC(=O)Nc1ccc(S(=O)(=O)N2CCc3ccccc3C2)cc1,-11%
Cc1cccc(-c2cc3nc(C)cc(N4CC(C)CC(C)C4)n3n2)c1 (stereo not drawn),u
O=C(NCCc1ccccc1)C1CC(c2ccccc2O)=NO1 (stereo not drawn),-9%
COc1ccc(-c2nn(CCC(=O)O)cc2CCC(=O)O)cc1,-17%
CC1(C)CC(CCC(=O)Nc2ccccc2Cl)C(=O)O1 (stereo not drawn),-12%
COC(=O)N/N=C/c1cc(Cl)cc(Cl)c1OCc1ccccc1F,-13%
COc1ccc(CCN=C(N)NS(=O)(=O)c2ccc3ccccc3c2)cc1,-4%
CC1CCN(c2ccc(/C=N/n3nnnc3N)cc2[N+](=O)[O-])CC1,-1%
C[C@]12CC[C@@H]3c4ccc(O)cc4CC[C@H]3[C@@H]1CC[C@@H]2O,-26%&-8%&-8%&-3%
CC(C)(C)NC(=O)C1Cc2ccccc2CN1C(=O)Nc1cccc(Cl)c1 (stereo not drawn),2%
COc1ccc(CN(CCCN2CCOCC2)S(=O)(=O)N(C)C)cc1OC,-4%

# Reprinted from the part before: 5 entries, followed by the next part.
SMILES,HPGD block
COc1ccc(CCN=C(N)NS(=O)(=O)c2ccc3ccccc3c2)cc1,-4%
CC1CCN(c2ccc(/C=N/n3nnnc3N)cc2[N+](=O)[O-])CC1,-1%
C[C@]12CC[C@@H]3c4ccc(O)cc4CC[C@H]3[C@@H]1CC[C@@H]2O,-26%&-8%&-8%&-3%
CC(C)(C)NC(=O)C1Cc2ccccc2CN1C(=O)Nc1cccc(Cl)c1 (stereo not drawn),2%
COc1ccc(CN(CCCN2CCOCC2)S(=O)(=O)N(C)C)cc1OC,-4%
O=C(COc1ccccc1)NCCSCc1ccc(Cl)cc1,-9%
CC1(C)C=Cc2c(c3ccccc3[nH]c2=O)O1,-11%
Cc1cn([C@H]2C[C@H](O)[C@@H](COC(N)=O)O2)c(=O)[nH]c1=O,-2%
C[C@@H]1NC(=O)[C@H](CCCN=C(N)N)NC(=O)c2cc([N+](=O)[O-])cc(I)c2NCCC[C@@H](C(N)=O)NC1=O,-7%
COc1ccc(-c2noc(CCCOc3ccccc3)n2)cc1OC,-10%
COc1ccc2c(c1[N+](=O)[O-])CCC/C2=N/OC(=O)c1cccc2ccccc12,-2%
COc1ccc(/C=N/NC(=S)Nc2ccccc2)cc1COc1ccc(F)cc1F,-24%
CCOC(=O)c1c(NC(=O)C(C)N2CCN(C(=O)c3ccco3)CC2)sc2c1CCCC2 (stereo not drawn),u
N#C/C(=C/c1ccccc1)c1nn(CCO)c(N)c1C#N,-14%
CCOC(=O)CSc1ncnc2c1cnn2-c1ccc(C)cc1,u
CCOC(=O)C1=C(C)Nc2nc(SCC)nn2C1c1ccc(OC)cc1 (stereo not drawn),-21%
CN(CC(=O)O/N=C(\N)c1ccccn1)S(=O)(=O)c1ccccc1,0%
O=c1c2c(nc3c(-c4ccccc4)c[nH]n13)CCCC2,-30%
O=C(OCC(=O)N1CCOCC1)c1ccccc1Cc1ccccc1,0%
Cc1[nH]c2ccccc2c1Cc1nnc(SCC(N)=O)o1,-12%
CC(C)C1=NN(C(=O)c2cccnc2)C(O)(C(F)(F)F)C1 (stereo not drawn),-15%
O=C(/C=C/c1cccc([N+](=O)[O-])c1)NCCSCc1c(Cl)cccc1Cl,-17%
Cc1cccc2cc(CN(Cc3ccc(F)cc3)Cc3nnnn3C3CCCC3)c(=O)[nH]c12,7%
O=C(Nc1nnc(Cc2ccccc2)s1)c1cccs1,-9%
CN1CCc2c(c3ccccc3n2C)C1,-6%
CCOC(=O)C(C(=O)OCC)C(C#N)c1ccccc1 (stereo not drawn),-13%
COc1ccc(CN(C(=O)CSc2nnc(-c3ccc(OC)c(OC)c3)o2)c2ccc(F)cc2)cc1,14µM*
O=C1N=C(N2CCc3ccccc3C2)S/C1=C\c1cccc(O)c1,5µM*
O=C(NC1CCCCCCC1)C1c2ccccc2C(=O)N1Cc1ccco1 (stereo not drawn),2%
